# Compound activity: PubChem BioAssay, several laboratories
# LANA-H2B inh = blockers of LANA interaction with H2A/H2B – biochemical, FP readout, HTS, primary screen. Protein LANA1 (Human herpesvirus 8 type P (isolate GK18)), Q9QR71. cell-free LANA-H2A/H2B peptide, fluorescence polarization. inhibition, % (concentration not given with the values). 0.6% of 320,000 active. AID 2629, 2010; in the data active = inhibition mostly above about 10%, no sharp cut-off; inactive = mostly below about 6.7%;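 also: stock transfer was 7.5 nL into about 10 µL; 0% = median of vehicle wells and 100% = median of positive control wells; one replicate is shown; the record names a cut of 25% in any replicate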
# Calb FLC = C. albicans growth inhibition with fluconazole, primary screen, CaCi-2 strain, Alamar Blue fluorescence. C. albicans CaCi-2 (fluconazole-resistant clinical isolate) + fluconazole, 48 h. growth inhibition, % (concentration not given with the values). 0.57% of 300,000 active. AID 1979, 2009;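 active = most replicates above 75%; inconclusive = exactly half above 75%; inactive = most below 75%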;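 also: all wells also contain fluconazole at 8 µg/ml as a sub-toxic cotreatment; 0% = median of DMSO wells and 100% = median of geldanamycin control wells; wells of about 8 µL received 7.5 nL stock; the first replicate is given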
# Vif A3G = inhibitors of Vif binding to APOBEC3G peptide, primary screen, biochemical, TR-FRET, GST-Vif 1-94, biotin-A3G peptide, dose response retest (AID 1117319). Virion infectivity factor (Human immunodeficiency virus type 1 group M subtype B (isolate …. TR-FRET GST-Vif / biotin-A3G peptide binding; higher % means a stronger effect; test concentration not given here; strong numbers were not always called active. inhibition, %; hits with a dose series show IC50 in µM. 0.57% of 260,000 active;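 active = above the screen mean plus three standard deviations and confirmed in dose response; inconclusive = results disagree or hit not tested in dose response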;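 also: Vif residues 1-94 fused to GST binding biotinylated APOBEC3G peptide 110-148; 0% = full assay without inhibitor and 100% = GST in place of GST-Vif; retest series ran down from 100 µM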
# HNF4A DNA FP = change in binding of human HNF4A to DNA, primary screen, biochemical, fluorescence polarization, FITC-DNA; 1 h; activity change, % at 10 µM; 0.3% of 360,000 active; AID 1224865, 2016; in the data active = activity change above about 30%, passing the limit was not always enough;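 also: controls were the assay level and a saturating level of protein; the project sought stronger binding though the title names inhibitors; some compounds called inactive have numbers as strong as hits; positive values seem to mean higher polarization but the record does not say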
# Target sequence (P41235 whole entry, looked up): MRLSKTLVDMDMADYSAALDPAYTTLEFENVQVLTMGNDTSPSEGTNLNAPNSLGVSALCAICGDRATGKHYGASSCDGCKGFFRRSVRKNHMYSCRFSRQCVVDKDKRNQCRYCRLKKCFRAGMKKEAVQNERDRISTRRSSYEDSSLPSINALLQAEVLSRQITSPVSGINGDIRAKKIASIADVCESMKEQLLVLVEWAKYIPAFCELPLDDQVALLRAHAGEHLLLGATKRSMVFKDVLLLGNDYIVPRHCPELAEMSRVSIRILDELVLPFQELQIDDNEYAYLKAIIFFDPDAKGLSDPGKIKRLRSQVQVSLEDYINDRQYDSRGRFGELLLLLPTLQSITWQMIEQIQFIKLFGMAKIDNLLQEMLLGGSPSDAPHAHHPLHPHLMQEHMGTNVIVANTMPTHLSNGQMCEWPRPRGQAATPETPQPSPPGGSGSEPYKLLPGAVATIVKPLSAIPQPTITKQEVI
# RanGTP-Impb inh = inhibitors of RanGTP-importin-beta interaction, primary screen, biochemical, FRET, CFP-Ran, YFP-importin-beta, homogeneous | Ran GTPase (GTP-bound) - importin-beta complex | cell-free CFP-Ran/YFP-importin-beta FRET ratio | inhibition, % (test concentration not listed) | 1.1% of 300,000 active;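 active = most replicates above 15%; inconclusive = exactly half above 15%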;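 also: 0% = DMSO wells and 100% = Ran loaded with GDP instead of GTP; wells of about 40 µL received 100 nL stock; the first replicate is given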
# ALR inh = inhibitors of human ALR sulfhydryl oxidase, primary screen, biochemical, H2O2 detection, HRP-luminol luminescence, single point; FAD-linked sulfhydryl oxidase ALR (Homo sapiens), P55789; purified ALR, DTT oxidation; inhibition, % (test concentration not listed); 3.8% of 290,000 active; AID 485317, 2010;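 active = mean and each replicate at 75% or more; inconclusive = only one of the two met; inactive = neither met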;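 also: stock transfer was 7.5 nL into about 7.5 µL; 0% = neutral wells and 100% = wells with inactivated enzyme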
# Target sequence (P55789 whole entry, looked up): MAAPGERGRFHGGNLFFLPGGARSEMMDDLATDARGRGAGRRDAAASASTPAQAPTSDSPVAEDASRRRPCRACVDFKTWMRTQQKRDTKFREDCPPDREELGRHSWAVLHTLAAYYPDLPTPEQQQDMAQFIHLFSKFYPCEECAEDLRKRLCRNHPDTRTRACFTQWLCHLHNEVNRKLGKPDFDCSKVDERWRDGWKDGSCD
# Beta2AR agonist = beta2AR agonists driving receptor internalization, primary screen, cell-based, FAP fluorogen, flow cytometry | Am2.2-beta2AR cells; reference of the scale not given here | response, % (test concentration not listed) | 0.43% of 340,000 active | AID 504454, 2011;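 active = response above a set limit, near 3 SD of response in nonfluorescent compounds, cut at about 42% in these data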;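 also: stock transfer was 100 nL into about 11 µL; a reference agonist was the positive control; negative values mostly stem from fluorescent compounds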
# * = called active by the depositor; ? = inconclusive; . = no result given.
SMILES,LANA-H2B inh,Calb FLC,Vif A3G,HNF4A DNA FP,RanGTP-Impb inh,ALR inh,Beta2AR agonist
O=C(CSc1cc(Cl)ccc1Cl)NCCN1C(=O)CSC1=O,2.2,.,-2%,-2.1,.,.,-13
CCN(CC)c1ccc(N=Cc2ccc(N(CC)CC)cc2O)cc1,2.8,78*,51µM*,167,4.0,18,-98
COc1cc(SC)ccc1C(=O)N1CCCc2ccccc21,-5.7,-5,.,-0.4,1.5,6,-10
CC(C)(C)OC(=O)NOCC(=O)N(CC(=O)c1ccccc1)Cc1ccccc1,0.1,-3,.,-4.0,-2.3,-17,-1
COc1cccc(OC)c1OCCOc1ccc(C(=O)c2ccccc2)cc1,-2.5,46,0%,2.7,4.2,-4,-10
CCCC(=O)Nc1nc(C)c(-c2csc(Nc3cc(OC)ccc3OC)n2)s1,-0.2,7,0%,3.6,2.0,-32,10
CCc1ccc(-c2nc(SCC(=O)N3CCOCC3)n[nH]2)cc1,0.9,4,0%,5.1,0.8,-3,4
CC(C)NC(=O)c1sc2nc(-c3cccs3)cc(-c3cccs3)c2c1N,-4.4,26,23%,.,5.5,.,.
O=C(Nc1cccc(S(=O)(=O)N2CCCCCC2)c1)c1cncc(Br)c1,-0.9,.,-8%,-1.9,.,-3,-2
O=C(CS(=O)(=O)c1ccccc1)Nc1nnc(-c2cccs2)o1,-3.7,4,-3%,5.1,1.1,.,-3
Cc1cc(N2CCN(S(=O)(=O)c3ccc4c(c3)OCCO4)CC2)n2ncnc2n1,0.2,-28,-1%,6.8,-9.3,-4,-11
Cc1ccc(-c2csc(NC(=O)C3=COCCO3)n2)cc1C,3.7,4,4%,5.1,2.1,84*,27
Cc1cc(C)n(-c2ccc(C(=O)Nc3cccc(S(=O)(=O)N(C)C)c3)cc2)n1,-0.2,2,.,-1.0,-3.6,.,6
CC(=O)OC1COC(N2CCc3ccccc32)C(OC(C)=O)C1OC(C)=O (centres undefined),2.1,4,.,-0.3,1.4,29,-5
CN(C)S(=O)(=O)c1ccc(NC(=S)NC(=O)Cc2ccccc2)cc1,-1.6,0,14%,2.8,-1.1,-1,-9

# Record cards, as listed above.
# `COc1cc(SC)ccc1C(=O)N1CCCc2ccccc21` in the list: LANA-H2B inh = -5.7; Calb FLC = -5; Vif A3G = .; HNF4A DNA FP = -0.4; RanGTP-Impb inh = 1.5; ALR inh = 6; Beta2AR agonist = -10
# `CCN(CC)c1ccc(N=Cc2ccc(N(CC)CC)cc2O)cc1` in the list: LANA-H2B inh = 2.8; Calb FLC = 78*; Vif A3G = 51µM*; HNF4A DNA FP = 167; RanGTP-Impb inh = 4.0; ALR inh = 18; Beta2AR agonist = -98

# Carrying on.
SMILES,LANA-H2B inh,Calb FLC,Vif A3G,HNF4A DNA FP,RanGTP-Impb inh,ALR inh,Beta2AR agonist
Cc1cc(/C=C(\C#N)C(=O)NC2CCCCCC2)c(C)[nH]1,-1.7,0,?,1.8,0.0,.,0
COc1ccc(NC(=O)NCCN2CCN(c3ccc(C)cc3)CC2)c(Cl)c1,-2.3,1,.,3.6,-5.2,.,16
CCc1ccc(-c2cc(N)n(-c3ccccc3)n2)cc1,.,-12,.,-2.6,-5.5,.,-8
CC(=O)C1=C(C)OC(N)=C(C#N)C1c1cccnc1 (centres undefined),3.1,4,-5%,0.1,0.6,-4,4
CC(C)(C)NC(=O)COc1ccc(CNc2ncn[nH]2)cc1,-8.4,-49,9%,1.9,-0.2,.,2
CCOc1ccc(C2NC(=O)C(C#N)=C(S)N2c2ccc(C)cc2)cc1OC (centres undefined),2.4,7,1%,31*,-1.7,52,4
O=C(CCCCCN1C(=O)c2ccccc2C1=O)Nc1nccs1,-0.6,1,74%,0.7,.,-3,-6
CCCCC1CCC(C(=O)OC(C)C(=O)Nc2ccc(NC(C)=O)cc2)CC1 (centres undefined),-0.5,-12,.,4.0,1.6,3,9
O=C(CCN1CCN(c2ccccc2F)CC1)Nc1ccc(F)cc1,-1.0,0,.,5.1,-2.5,-5,1
O=C(NC1c2ccccc2-c2ccccc21)N1CCCCC1,.,2,2%,1.1,-4.0,.,-7
O=C(Cc1ccc(-n2c(=O)c3sccc3n(CC(=O)Nc3ccccc3F)c2=O)cc1)NCc1ccco1,-2.6,-9,-13%,-1.4,2.6,-14,-6
CCOc1ccc(-n2c(SCC(=O)Nc3cc(OC)c([N+](=O)[O-])cc3C)nc3ccccc32)cc1,3.8,-2,-8%,6.5,-3.7,-17,-3
CCOC(=O)Cc1nnn(CC(=O)OCC)n1,-3.4,20,16%,-3.0,2.9,-3,-2
Cc1ccc(-c2cc(C(F)F)n3ncc(C(=O)NCc4ccco4)c3n2)cc1,6.0,.,15%,0.9,.,9,1
Cc1ccc(-c2nn3c(C)nnc3s2)cc1NC(=O)CSc1ccc(Cl)cc1,6.7,-42,65%,1.6,7.7,4,14
Cc1cccc(C)c1NC(=O)CNC(=O)CCC(=O)c1cccs1,-14,21,-1%,-1.8,3.2,-14,-6
COc1ccc(-n2c(=S)[nH]c3c(sc(=S)n3-c3ccccc3)c2=O)c(OC)c1,7.6,-2,13%,2.8,-1.2,.,7
O=C(c1ccc(Br)o1)N1CCN(c2ccccn2)CC1,-6.0,5,12%,-0.3,0.5,-1,2
COC(=O)Nc1ccccc1C(=O)N1CCCCC1,1.0,?,13%,1.4,1.0,-3,1
O=C(CCSc1ccc(Cl)cc1)NCc1ccccn1,2.7,-13,7%,5.7,1.1,-18,0
O=C(O)CNS(=O)(=O)c1ccc(Br)s1,-0.2,13,-2%,-1.4,4.4,.,-7
Cn1c(-c2ccc(Br)cc2)cnc1NCc1cccnc1,6.0,?,10%,-3.3,-2.7,21,-1
COC(=O)c1ccccc1NC(=O)NC1CCC(C)CC1 (centres undefined),3.8,0,.,-1.4,-2.8,-3,-4
CSCC[C@H](NC(=O)C1CCCC1)c1nc2ccccc2[nH]1,-3.9,-4,0%,-0.1,-0.4,-9,0
CC(C)(C)NC(=O)COC(=O)c1nsc(Cl)c1Cl,-0.7,-6,14%,-2.2,0.4,-1,2
Cc1ccc(C(=O)Nc2ccc(C(=O)NCC3CCCO3)cc2)cc1 (centres undefined),-1.6,1,.,-0.9,?,40,14
CC1CC(=O)Nc2ccccc2S1(=O)=O (centres undefined),-0.3,2,-1%,-2.5,1.7,-35,14
CCOC(=O)c1ccc(NC(=O)C2(c3ccc(Cl)cc3)CCCC2)cc1,5.4,-24,6%,-3.6,?,-3,5
CNc1ccc(C(=O)c2ccccc2C(=O)O)cc1[N+](=O)[O-],2.8,?,.,0.3,-1.8,-7,4
CC(C)Oc1ccccc1NC(=O)CSc1nccn1C,1.3,-4,.,1.8,0.7,-16,-2
O=C(OCc1ccccc1Cl)c1ccc(-n2cnnc2)cc1,-0.5,-1,?,-4.9,-4.5,-6,9
CCn1nc(C(=O)OCC(=O)c2ccc3c(c2)OCCO3)c2ccccc2c1=O,4.6,.,-11%,4.5,-4.0,-6,-4
Cc1ccc(CSCc2ccc(C(=O)NC3CC3)o2)cc1,2.8,-4,.,1.8,-1.9,-10,-2
O=C(NCc1ccco1)c1nc2ccccc2s1,-1.7,-3,1%,0.5,3.7,-10,2
COC(=O)c1ccc(C(=O)OC)c(NC(=S)N2CCN(c3ccc(F)cc3)CC2)c1,1.5,18,-9%,-1.2,7.0,-2,3
O=S(=O)(/C(=C/c1ccc(C(F)(F)F)cc1)c1nc2ccccc2[nH]1)c1ccccc1,3.0,-5,-3%,0.1,-2.9,34,22
O=C(CNC(=O)c1ccccc1F)N/N=C/c1ccco1,6.7,-3,.,0.9,0.4,-18,1
CC1=CC(C)C(C(=O)O)C(C(=O)O)C1 (centres undefined),2.1,-3,-4%,0.1,0.4,-2,-4
Cc1ccc(/C=N/NC(=O)c2cccc(S(=O)(=O)Nc3cccc(Cl)c3)c2)o1,0.9,-5,-1%,-4.9,3.3,-2,3
COc1cc(CN2CCN(C(=O)c3cccc4ccccc34)CC2)cc(OC)c1O,1.8,-2,.,0.2,-1.8,-12,4
Cc1noc(C)c1NC(=O)N(C)C[C@H]1Oc2ccc(NC(=O)NC(C)C)cc2C(=O)N([C@H](C)CO)C[C@H]1C,0.1,.,.,3.9,.,-6,4

# As a working copy, 19 of the compounds above.
SMILES,LANA-H2B inh,Calb FLC,Vif A3G,HNF4A DNA FP,RanGTP-Impb inh,ALR inh,Beta2AR agonist
O=C(CSc1cc(Cl)ccc1Cl)NCCN1C(=O)CSC1=O,2.2,.,-2%,-2.1,.,.,-13
CCN(CC)c1ccc(N=Cc2ccc(N(CC)CC)cc2O)cc1,2.8,78*,51µM*,167,4.0,18,-98
COc1cc(SC)ccc1C(=O)N1CCCc2ccccc21,-5.7,-5,.,-0.4,1.5,6,-10
CC(C)(C)OC(=O)NOCC(=O)N(CC(=O)c1ccccc1)Cc1ccccc1,0.1,-3,.,-4.0,-2.3,-17,-1
COc1cccc(OC)c1OCCOc1ccc(C(=O)c2ccccc2)cc1,-2.5,46,0%,2.7,4.2,-4,-10
CCCC(=O)Nc1nc(C)c(-c2csc(Nc3cc(OC)ccc3OC)n2)s1,-0.2,7,0%,3.6,2.0,-32,10
CCc1ccc(-c2nc(SCC(=O)N3CCOCC3)n[nH]2)cc1,0.9,4,0%,5.1,0.8,-3,4
CC(C)NC(=O)c1sc2nc(-c3cccs3)cc(-c3cccs3)c2c1N,-4.4,26,23%,.,5.5,.,.
O=C(Nc1cccc(S(=O)(=O)N2CCCCCC2)c1)c1cncc(Br)c1,-0.9,.,-8%,-1.9,.,-3,-2
O=C(CS(=O)(=O)c1ccccc1)Nc1nnc(-c2cccs2)o1,-3.7,4,-3%,5.1,1.1,.,-3
Cc1cc(N2CCN(S(=O)(=O)c3ccc4c(c3)OCCO4)CC2)n2ncnc2n1,0.2,-28,-1%,6.8,-9.3,-4,-11
Cc1ccc(-c2csc(NC(=O)C3=COCCO3)n2)cc1C,3.7,4,4%,5.1,2.1,84*,27
Cc1cc(C)n(-c2ccc(C(=O)Nc3cccc(S(=O)(=O)N(C)C)c3)cc2)n1,-0.2,2,.,-1.0,-3.6,.,6
CC(=O)OC1COC(N2CCc3ccccc32)C(OC(C)=O)C1OC(C)=O (centres undefined),2.1,4,.,-0.3,1.4,29,-5
CN(C)S(=O)(=O)c1ccc(NC(=S)NC(=O)Cc2ccccc2)cc1,-1.6,0,14%,2.8,-1.1,-1,-9
Cc1cc(/C=C(\C#N)C(=O)NC2CCCCCC2)c(C)[nH]1,-1.7,0,?,1.8,0.0,.,0
COc1ccc(NC(=O)NCCN2CCN(c3ccc(C)cc3)CC2)c(Cl)c1,-2.3,1,.,3.6,-5.2,.,16
CCc1ccc(-c2cc(N)n(-c3ccccc3)n2)cc1,.,-12,.,-2.6,-5.5,.,-8
CC(=O)C1=C(C)OC(N)=C(C#N)C1c1cccnc1 (centres undefined),3.1,4,-5%,0.1,0.6,-4,4
